High-throughput results: PubChem BioAssay, National Center for Advancing Translational Sciences (NCATS)
Menin MLL FP FL: displaces fluorescein MLL peptide from human menin. Fluorescence polarization, fluorescein-MLL peptide displacement from menin. FP activity change, % at 61.4 µM. 290,000 tested, under 10 active. AID 1766; inconclusive = falling polarisation curve, or a change in total fluorescence; inactive = total fluorescence flat and polarisation flat or rising; no compound was filed as active; the % refers to the polarisation; negative = inhibition;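 further: % of control where 0% means no effect; inhibitors lower the polarisation; unlabelled MLL peptide was the positive control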
TRPML1 inh: human mucolipin-1 channel inhibition; Q9GZU1; TRPML1-inducible cells, Ca2+ dye fluorescence, FDSS; hits give low values; inhibition of EC80 agonist-evoked calcium signal; activity change, negative = inhibition, % (no concentration beside the values); 390,000 tested, 0.02% active; AID 624415; in the data active means activity change below about -50%; inconclusive means about -30% to -50%; inactive means above about -30%;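 further: stimulus is agonist 54-4 at its EC80 concentration; on the % scale 0 is the no-effect control and ±100 the full control effect; compound concentration not given in the record; the text of the record puts the active cut at -80%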
Target sequence (Q9GZU1 whole entry, looked up): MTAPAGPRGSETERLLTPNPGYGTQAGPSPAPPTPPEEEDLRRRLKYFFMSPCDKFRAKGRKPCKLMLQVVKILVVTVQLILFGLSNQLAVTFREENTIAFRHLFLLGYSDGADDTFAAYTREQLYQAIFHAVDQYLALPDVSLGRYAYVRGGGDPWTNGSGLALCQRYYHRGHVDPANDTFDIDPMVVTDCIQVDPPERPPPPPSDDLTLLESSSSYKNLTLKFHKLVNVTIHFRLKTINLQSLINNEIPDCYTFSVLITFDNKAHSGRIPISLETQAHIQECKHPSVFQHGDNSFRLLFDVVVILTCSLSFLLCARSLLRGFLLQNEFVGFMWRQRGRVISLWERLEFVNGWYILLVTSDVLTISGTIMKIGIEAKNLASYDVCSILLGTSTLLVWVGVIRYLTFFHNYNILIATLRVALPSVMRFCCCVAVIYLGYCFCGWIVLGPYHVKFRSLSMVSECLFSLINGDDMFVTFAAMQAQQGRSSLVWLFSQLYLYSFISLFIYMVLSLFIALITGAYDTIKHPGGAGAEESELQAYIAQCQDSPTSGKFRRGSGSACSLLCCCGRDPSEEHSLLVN
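Calcium fluorescence in TRPML1-DL cells induced overnight with Tet: a 110 s read after compound pin addition, then a 110 s antagonist read after challenge with 54-4 at 4 uM final (EC80).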
Sfp inh: Sfp phosphopantetheinyl transferase inhibition; Q9F4F7; Biochemical Sfp PPTase activity, qHTS; Potency, µM, for inactives: max response, negative = inhibition, actives largely listed as inhibitors; 310,000 tested, 3.5% active; active means well fitted inhibition curve with a large enough effect; inconclusive means small, poorly fitted or top-dose-only effect, or another doubt; inactive means no such curve, though single readings can be large or run the other way;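 further: the enzyme is Sfp with the accession as filed and its product quenches rhodamine fluorescence; potency means the concentration at half of the fitted maximal effect; 0% = enzyme reaction without inhibitor and -100% = no enzyme wells; top concentration of the series not given in the record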
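After 15 min at room temperature with compound, 15 nM Sfp received 5 uM rhodamine-CoA plus 12.5 uM BHQ-2-ybbR (50 mM Hepes pH 7.6, 10 mM MgCl2). Rate came from the fluorescence difference over 30 min, ex 525/em 598 nm.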
gsp antagonist: antagonizes gsp, the McCune-Albright syndrome mutation; Potency, µM (highest dose often 76.9 µM), without a hit: at the highest dose activity change, negative = inhibition, most hits filed as inhibitors; gsp-mutant cells, cAMP HTRF, 30 min; control for the full effect not named in the record; 340,000 tested, 0.4% active; AID 624288; active = falling curve of any shape with a large fitted effect; inconclusive = falling curve, mostly with a smaller effect; inactive = flat or rising curve; cell line not stated here;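 further: intracellular cAMP measured with PDE inhibitor Ro 20-1724 present during compound exposure; potency means the concentration at half of the fitted maximal effect; on the % scale 0 is the no-effect control and ±100 the full control effect; nearly all actives have a fitted effect of over 65% in size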
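HTRF cAMP read-out (cAMP-d2 plus anti-cAMP antibody-K in lysis buffer, 30 min RT). Before lysis, cells are exposed to compounds with […] for 30 min at 37C in DPBS containing Ca/Mg, BSA and Tween 20.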
gsp agonist: activates gsp, the McCune-Albright syndrome mutation; gsp mutant cells, cAMP HTRF, 30 min; control for the full effect not named in the record; AID 624287; 340,000 tested, 0.13% active; Potency, µM (titrated, usually from 76.9 µM), for the others: at the top dose activation (cAMP increase), usual class: activators; active = well fitted activation curve with a large enough effect; inconclusive = small, poorly fitted or top-dose-only effect, or another doubt; inactive = no such curve, though single readings can be large or run the other way; cell line not stated here;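 further: phosphodiesterase inhibitor Ro 20-1724 added with compounds to block cAMP breakdown; potency means the concentration at half of the fitted maximal effect; nearly all actives have a fitted effect of over 60% in size; about a fifth of the inactives were tested at one dose only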
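Cells stably selected in G418 were plated at 2000/well, grown 16-24 hr, then given compounds in DMSO with the PDE inhibitor […] (300 uM solution added) for 30 min at 37C; cAMP was read by HTRF.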
TRPV1 potentiator: potentiators of human vanilloid receptor 1 (TRPV1) | Q8NER1 | TRPV1-expressing cells, Fluo-8 calcium influx, capsaicin EC20 potentiation; host cell line not named in the record; control for the full effect not named in the record | potentiation, % at 8.33 µM | 320,000 tested, 0.02% active; active means potentiation above 80%; inconclusive means 30% to 80%; inactive means below 30%; further: 0% is about no effect
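Cells expressing TRPV1 were dye-loaded with Fluo-8 and read kinetically: 10 s baseline, 3 min after compound (agonist portion), then 2 min after EC20 capsaicin (allosteric enhancer portion). Calcium-bound dye fluorescence at 480/520 nm.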
ClpP mod: qHTS Assay for Activators of ClpP | Potency, µM (doses to about 57.5 µM), inactives show top-dose activity change, negative = active | ATP-dependent Clp protease proteolytic subunit (Bacillus subtilis (strain 168)), P80244 | purified B. subtilis ClpP, FRET peptide cleavage, 20 min | 340,000 tested, 1.9% active | AID 651965, 2013; active = well fitted falling curve with a large enough effect; inconclusive = small, poorly fitted or top-dose-only effect; inactive = no such curve, though single readings can be large or run the other way; further: potency means the concentration at half of the fitted maximal effect; the source files actives as falling curves though it sought activators and does not explain the sign; nearly all actives have a fitted effect of over 65% in size; many hits overshoot -100%
Target sequence (P80244 whole entry, looked up): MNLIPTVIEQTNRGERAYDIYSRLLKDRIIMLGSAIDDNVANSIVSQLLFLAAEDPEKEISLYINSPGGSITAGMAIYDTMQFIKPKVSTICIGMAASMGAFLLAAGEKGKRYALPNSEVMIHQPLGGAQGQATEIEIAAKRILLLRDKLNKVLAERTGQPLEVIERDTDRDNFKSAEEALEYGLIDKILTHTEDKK
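FRET quenching reversal measured ClpP activation: 10 microg/mL B. subtilis ClpP at pH 8 with the FRET-FV decapeptide, read at 430 nm after 320 nm excitation. The 20-min minus 0-min signal was scaled between DMSO/no-enzyme wells and ADEP (5.8 microM final).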
* marks the source's active call; other numbers are inactive results; ? = inconclusive; . = not tested or not shown; [ ] = another dose, or the depositor's remark.

SMILES | Menin MLL FP FL | TRPML1 inh | Sfp inh | gsp antagonist | gsp agonist | TRPV1 potentiator | ClpP mod
COCC(=O)Nc1ccc(S(=O)(=O)Nc2cc(C)nc(C)n2)cc1 | 2.2 | -12 | 13% | -1% | ? | 4 | -0.6%
O=C(N/C(=C\c1ccco1)C(=O)N1CCOCC1)c1ccc([N+](=O)[O-])cc1 | 6.3 | -11 | 1% | -2% | ? | -15 | .
CC(C)=CCN1CCN(Cc2cn[nH]c2C2CCCCC2)CC1CCO (centres undefined) | -0.9 | -14 | 16% | 10% | -15%[15.4 µM] | 9 | .
O=C(c1ccccc1)N1CCCOC1c1ccccc1 (centres undefined) | 1.4 | -6 | 12% | 19% | -17% | 18 | 0.8%
O=C(CC1OC(=O)c2ccccc21)NC1CCCCC1 (centres undefined) | 1.7 | 8 | 2% | 6% | -14% | 8 | 0.3%
Cc1occc1C(=O)NNC(=S)NCC(C)C | 0.5 | -8 | 13% | 6% | 8% | -5 | -2.3%
Cc1ccc(Cl)cc1NC(=O)COC(=O)CCN1C(=O)C2CC=CCC2C1=O (centres undefined) | . | -1 | . | -1% | -63%[inhibitor] | . | 25µM*
Cc1ccc(C(=O)N2CCCC(CCC(=O)NCc3ccccc3F)C2)cn1 (centres undefined) | . | -13 | 13% | 7% | 0% | -9 | -0.8%
CC[n+]1c(/C=C2\C=C(C)CC(C)C2)sc2ccccc21 (centres undefined) | 9.6 | 6 | 35µM* | 2% | -39%[inhibitor] | 2 | -6.5%
COc1cccc(/C=N/n2c(COc3ccccc3)n[nH]c2=S)c1 | 3.7 | 8 | ? | -21% | 19%[15.4 µM] | -1 | -8.3%
COc1cccc(C2C(C(N)=O)=C(C)Nc3nc(CCCO)nn32)c1OC (centres undefined) | -1.9 | 16 | 12% | 5% | -6% | 0 | -11%
Cc1ccc(C2=NNC(=O)C(c3ccc(Cl)cc3)C2)cc1 (centres undefined) | -1.0 | -11 | -9% | -1% | -22% | -33 | -1.2%
O=C(N/N=C/c1cccnc1)c1ccc(S(=O)(=O)N2CCCCCC2)cc1 | 5.3 | -12 | 17% | -7% | 14% | -6 | -21%
O=S1(=O)CCC(NCC2CCCO2)C1 (centres undefined) | 0.7 | -5 | 12% | 4% | -30% | -1 | -0.5%
O=C(CCC(=O)N1CCOc2ccc(Cl)cc21)NCCCN1CCC(Cc2ccccc2)CC1 | 6.6 | -7 | -9% | 11% | -6% | -4 | 0.0%
Cc1cn([C@H]2C[C@H](O)[C@@H](CCC(=O)NCCc3c[nH]c4ccccc34)O2)c(=O)[nH]c1=O | . | 33 | . | 4% | . | . | -6.5%
C[C@@H]1ON(C)[C@H]2C[C@H]3c4cc(N5CCN(C)CC5)ccc4CCN3C(=O)[C@@H]12 | . | -4 | . | -1% | . | . | -15%
COc1ccc(CC(=O)Oc2ccc(Cl)cc2Br)cc1S(=O)(=O)N1CCOCC1 | . | 10 | . | -2% | 4%[15.4 µM] | 4 | -3.8%
COc1ccc(OC)c(-n2nnnc2SCC(=O)N2CCN(C(=O)c3ccco3)CC2)c1 | 0.8 | -23 | 14% | -2% | -15%[15.4 µM] | -5 | .
COc1ccc(CNC(=O)CSc2nnc3c(n2)[nH]c2ccccc23)cc1 | . | 57 | -2% | -9% | 3%[15.4 µM] | 6 | -0.3%
COc1cccc(NC(=O)Nc2ccc(Cc3ccncc3)cc2)c1 | 4.9 | 3 | -11% | -13% | -12% | 4 | -0.9%
O=C(Nc1ccc(Nc2ccccc2)cc1)c1c(Cl)cccc1Cl | . | -3 | . | -27% | 26% | . | .
Cc1ccc(C)c(S(=O)(=O)N2CCCOC2CNC(=O)C(=O)NC2CCCCC2)c1 (centres undefined) | . | -20 | 12% | 3% | -54%[inhibitor] | 15 | 4.1%
COc1cccc2cc(C(=O)NCCN3CCOCC3)oc12 | . | -9 | -7% | 11% | 2% | 23 | -21%
CCOc1ccc(NC(=O)CN(C)C(=O)c2ccc3c(c2)C(=O)N(CCC(C)C)C3=O)cc1OCC | 0.0 | 10 | 7% | 5% | 9% | -9 | 1.2%
CC(C)CCN1C(=O)c2ccc(C(=O)Nc3ccc(Br)cc3C(=O)O)cc2C1=O | -4.4 | -3 | -7% | 35µM* | 5% | 6 | -0.2%
NC(=O)c1sc2nc3c(c(-c4ccc(Cl)cc4)c2c1N)CCCC3 | 1.1 | 11 | -23% | -14% | 10% | -9 | -0.4%
O=C(c1cc2c(=O)oc3ccccc3c2s1)N1CCOCC1 | -0.5 | -12 | 18% | 4% | 29% | -13 | 0.4%
O=C(NCCC1CCCCN1S(=O)(=O)c1ccc(Cl)cc1)C(=O)NCCN1CCOCC1 (centres undefined) | . | ? | . | 4% | 1% | 6 | 0.8%
C[C@@H]1CN([C@H](C)CO)C(=O)CCCn2nncc2CO[C@@H]1CN(C)C(=O)C1CC1 | . | -19 | . | . | ? | . | -1.0%
CCN(CC)S(=O)(=O)c1cccc(NC(=O)COc2ccc(Cl)cc2Br)c1 | 0.8 | 13 | 21% | -7% | 4% | 2 | 1.7%
COc1ccccc1-c1sc2cc3c(cc2c1C#CCO)OCO3 | . | 8 | . | -13% | ? | 13 | ?
Cc1ccc(-n2c(Cn3nc(C(F)(F)F)cc3C)n[nH]c2=S)cc1 | 5.0 | -13 | ? | -5% | -1% | -9 | -2.1%
CC(=O)c1ccc(NC(=O)CSc2nc(Nc3ccccc3)nc(N3CCOCC3)n2)cc1 | . | 10 | 11% | 5% | -7%[15.4 µM] | 0 | 2.0%
CCCN=C1NC(=O)C(CC(=O)NCCc2ccc(OC)c(OC)c2)S1 (centres undefined) | 0.6 | -6 | 30% | 14% | 4%[15.4 µM] | 7 | .
COc1ccccc1C(=O)NNC(=O)C(=O)NC(C)(C)C | 1.8 | 25 | -7% | 3% | -17% | 7 | 0.2%
Cc1[nH][nH]c(=O)c1C(c1c(C)[nH][nH]c1=O)c1cn(Cc2ccc(Cl)c(Cl)c2)c2ccccc12 | 5.7 | -18 | -13% | 14% | 24%[15.4 µM] | 10 | -4.8%
CCOC(=O)N1CCN(S(=O)(=O)c2cc(-c3nn4c(C)nnc4c4ccccc34)ccc2C)CC1 | 2.7 | 4 | -2% | -14% | ? | -20 | -18%
COc1ccc(-n2nc(C(=O)O)c3ccccc3c2=O)cc1 | 1.4 | -2 | 10% | ? | 6% | 4 | -3.5%
COc1cccc(CNn2cn[nH]c2=S)c1OCc1ccccc1 | -0.5 | -20 | -21% | -15% | 19% | -20 | 0.1%
Cc1oc(-c2ccc(Cl)cc2)[n+]([O-])c1C | 7.2 | 5 | -2% | 11% | 0% | 0 | -0.1%
O=C(O)C1CCCN1C(=O)NC1CCCCC1 (centres undefined) | 0.8 | 13 | 2% | 8% | 5% | -11 | 2.0%
CCN1C(=O)C(CC(=O)NCc2ccc(Cl)cc2)N(CC)C1=O (centres undefined) | -0.4 | -5 | 1% | 8% | -2% | 13 | 0.7%
COc1nccc(C(F)(F)F)c1C(=O)NC(=O)Nc1ccccc1 | -0.2 | -12 | 16% | 2% | 11% | 17 | -1.3%
COc1cccc(C#Cc2ccc3c(c2)O[C@@H](CN(C)C(=O)c2ccccn2)[C@@H](C)CN([C@H](C)CO)S3(=O)=O)c1 | . | -1 | . | . | -10% | . | 3.7%
COc1cc2c(cc1OC)-c1cc(NC3CCCCCC3)nc(=O)n1CC2 | 2.8 | -4 | 6% | 20% | -23% | 13 | 25µM*
COCC(=O)N1CCC(Oc2ccc(C(=O)NCc3cc(C(C)C)no3)cc2)CC1 | . | -16 | 17% | 10% | -19%[15.4 µM] | -3 | .
CCCN(CCC)CCCNc1ccc(C(=O)Nc2cccc(OC)c2)cc1[N+](=O)[O-] | 0.7 | 9 | -7% | 4% | 8%[15.4 µM] | 14 | 0.3%

Part of the list above, with values under each structure.
Sequence of screens: Menin MLL FP FL, TRPML1 inh, Sfp inh, gsp antagonist, gsp agonist, TRPV1 potentiator, ClpP mod
O=C(O)C1CCCN1C(=O)NC1CCCCC1 (centres undefined)
  0.8, 13, 2%, 8%, 5%, -11, 2.0%
CCN1C(=O)C(CC(=O)NCc2ccc(Cl)cc2)N(CC)C1=O (centres undefined)
  -0.4, -5, 1%, 8%, -2%, 13, 0.7%
COc1nccc(C(F)(F)F)c1C(=O)NC(=O)Nc1ccccc1
  -0.2, -12, 16%, 2%, 11%, 17, -1.3%
COc1cccc(C#Cc2ccc3c(c2)O[C@@H](CN(C)C(=O)c2ccccn2)[C@@H](C)CN([C@H](C)CO)S3(=O)=O)c1
  ., -1, ., ., -10%, ., 3.7%
COc1cc2c(cc1OC)-c1cc(NC3CCCCCC3)nc(=O)n1CC2
  2.8, -4, 6%, 20%, -23%, 13, 25µM*
COCC(=O)N1CCC(Oc2ccc(C(=O)NCc3cc(C(C)C)no3)cc2)CC1
  ., -16, 17%, 10%, -19%[15.4 µM], -3, .
CCCN(CCC)CCCNc1ccc(C(=O)Nc2cccc(OC)c2)cc1[N+](=O)[O-]
  0.7, 9, -7%, 4%, 8%[15.4 µM], 14, 0.3%

The listing continues:
SMILES | Menin MLL FP FL | TRPML1 inh | Sfp inh | gsp antagonist | gsp agonist | TRPV1 potentiator | ClpP mod
C=CCNCCOCCOc1ccccc1-c1ccccc1 | 2.1 | -2 | -5% | 2% | ? | -21 | 0.0%
OC(c1cccc(Cl)c1)c1nccc2ccccc12 (centres undefined) | -2.0 | 9 | 2% | -5% | 13% | -3 | 0.6%
N#CCCn1nc(-c2ccc(Cl)cc2)cc1Nc1ccccc1NC(=O)C(F)(F)F | 0.4 | -12 | 15% | 10% | 5%[15.4 µM] | 2 | -2.3%
Cc1csc2nc(CSc3ccc(Cl)cc3)cn12 | 3.6 | 0 | -6% | -20% | -5% | -11 | -0.1%
